TRb-SRC2 inh: disrupts binding of human TR beta to SRC2. Potency, µM (titrated, usually from 106 µM), for inactives: top-dose activity change, negative = inhibition, most hits filed as inhibitors. TRbeta-SRC2 peptide binding, fluorescence polarization; receptor liganded with 1 µM T3. AID 1469. hit rate 0.065% among 280,000;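 also: plate controls were bound peptide for no effect and peptide without receptor for full effect; nearly all actives have a fitted effect of over 50% in size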
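Compounds were added to 0.6 uM TRb ligand-binding domain and 20 nM Texas Red-labeled SRC2 peptide in Tris buffer containing 1 uM T3, incubated 5 hr at ambient temperature, then read by fluorescence polarization.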
GoLoco inh red: blocks human Gai1 binding to RGS12 GoLoco peptide, red readout | P63096 | Gai1:RGS12 GoLoco peptide FP, rhodamine, 10 min | Potency, µM (highest dose often 61.6 µM), for the others: at the top dose activity, negative = inhibition, actives largely listed as inhibitors | hit rate 0.44% among 230,000 | AID 880; active = well fitted inhibition curve with a large enough effect, not every such curve was filed as active; inactive = no such curve, though single readings can be large or run the other way; also: % is scaled to controls: 0 for no effect and ±100 for the full control effect; nearly all actives have a fitted effect of over 30% in size; many of its hits are not listed in these tables
Lamin A splicing: modulators of lamin A splicing; HeLa LMNA splicing GFP/RFP minigene ratio, 48 h; Potency, µM (highest dose often 46.1 µM), for inactives: top-dose ratio change, negative = inhibition, hits mostly inhibitors; hit rate 0.01% among 200,000; active = well fitted inhibition curve with a large enough effect in the signal ratio, with a control signal flat, not every such curve was filed as active; inconclusive = small, poorly fitted or top-dose-only effect, or effect the other way, or a change in a side signal; the % refers to the signal ratio; also: % is scaled to controls: 0 for no effect and ±100 for the full control effect
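S3 HeLa cells stably expressing lamin A-EGFP splicing minigene plus DsRed2, 600 cells/well, 48 h compound exposure at 37C. Laser-scanning cytometry; analysed as GFP (500-530 nm)/RFP (575-640 nm) total intensity ratio; 0.5% DMSO vehicle.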
RECQ1 inh: blocks DNA unwinding by human RECQ1. P46063. RECQ1 DNA unwinding, red fluorescence kinetic read. Potency, µM (series often up to 57.3 µM), without a hit: top-dose activity, negative = inhibition, hits mostly inhibitors. hit rate 0.54% among 240,000;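 also: plate controls were vehicle for no effect and no enzyme for full effect; nearly all actives have a fitted effect of over 30% in size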
Target sequence (P46063 whole entry, looked up): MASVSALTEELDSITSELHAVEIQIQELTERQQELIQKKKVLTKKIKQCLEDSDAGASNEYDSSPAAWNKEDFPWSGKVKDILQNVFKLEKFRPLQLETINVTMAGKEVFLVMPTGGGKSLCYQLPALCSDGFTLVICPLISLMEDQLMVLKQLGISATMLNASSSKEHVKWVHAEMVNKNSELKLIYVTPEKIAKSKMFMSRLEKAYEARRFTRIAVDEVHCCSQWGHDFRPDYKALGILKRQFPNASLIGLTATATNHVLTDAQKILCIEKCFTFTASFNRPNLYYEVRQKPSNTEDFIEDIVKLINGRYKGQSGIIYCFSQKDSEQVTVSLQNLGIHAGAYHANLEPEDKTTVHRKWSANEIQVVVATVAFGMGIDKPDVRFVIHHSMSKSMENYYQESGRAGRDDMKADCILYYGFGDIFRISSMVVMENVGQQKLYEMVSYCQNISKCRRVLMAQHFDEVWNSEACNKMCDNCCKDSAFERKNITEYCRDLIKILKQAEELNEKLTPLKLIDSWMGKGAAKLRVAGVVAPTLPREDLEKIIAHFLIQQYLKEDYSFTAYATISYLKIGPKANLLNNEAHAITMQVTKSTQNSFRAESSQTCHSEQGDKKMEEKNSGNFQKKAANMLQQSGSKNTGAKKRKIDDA
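RECQ1T1 50 nM; forked duplex (20 bp + 30-nt ss tails) 200 nM, ATP 2 mM final; pH 8.0, 2 mM MgCl2, 2.5 ug/ml poly(dI-dC); 15 min compound preincubation; discontinuous kinetic read over 2 h at RT.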
TR SRC2 fluor cs: counter-screen for TRb-SRC2 inhibitors: fluorescence interference; AID 1479; TRb/SRC2 Texas Red total fluorescence interference; hit rate 0.29% among 280,000; Potency, µM (titrated, usually from 106 µM), for the others: at the highest dose fluorescence change, negative = quenching; active = well fitted curve in either direction with a large enough effect; inconclusive = small, poorly fitted or top-dose-only effect; also: % is scaled to controls: 0 for no effect and ±100 for the full control effect
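Human TRb ligand-binding domain at 0.6 uM with 20 nM Texas Red SRC2 peptide in Tris buffer containing 1 uM T3 and 5% DMSO, incubated with compound 5 h at ambient temperature. Total fluorescence (555/632 nm) calculated as parallel + 2 × perpendicular.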
SMN2 splice up: SMN2 splice variant enhancement; HEK293 SMN2-luciferase splicing reporter, luminescence, 30-36 h; Potency, µM (highest dose often 46.1 µM), for the others: at the top dose activity change, positive = activation, actives largely listed as activators; hit rate 2.8% among 210,000; AID 1458; also: % of control where 0% means no effect; nearly all actives have a fitted effect of over 55% in size
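qHTS luciferase splicing reporter: luminescence rises when SMN2 exon 7 is included in transfected HEK293 cells. Compound exposure lasted 30-36 h at 37C, with 4.5 mM final sodium butyrate as control, followed by a ONE-Glo read.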
ALDH1A1 block: blocks purified human ALDH1A1 activity | hit rate 7.3% among 220,000 | P00352 | Purified ALDH1A1, NADH fluorescence, propionaldehyde substrate | Potency, µM (highest dose often 75.3 µM), without a hit: at the highest dose activity, negative = inhibition, usual class: inhibitors; active = well fitted inhibition curve with a large enough effect, not every such curve was filed as active; inconclusive = small, poorly fitted or top-dose-only effect, or another doubt; inactive = no such curve, though single readings can be large or run the other way;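 also: plate controls were no enzyme wells and a reference inhibitor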
Active calls of the source: *; i = inactive; ? = inconclusive; · = no result given; [ ] = remark or other dose. Unless noted, calls follow the shape of the dose curve; as a rule, active = well fitted curve in the direction sought with a large enough effect; inconclusive = small, poorly fitted or top-dose-only effect, or another doubt; inactive = no such curve, though single readings can be large; an effect the other way counts as inactive or inconclusive. Potency is read from the fitted curve at half-maximal effect.

nr	SMILES	TRb-SRC2 inh	GoLoco inh red	Lamin A splicing	RECQ1 inh	TR SRC2 fluor cs	SMN2 splice up	ALDH1A1 block
1	c1ccc(N2CCN(Cc3cn4ccccc4n3)CC2)cc1	-2.7%	4.4%	-12.4%[46 µM]	-3.1%	0.1%	·	11.1%
2	O=C(CCCCn1c(=O)c2ccccc2n(CC(=O)NC2CCCC2)c1=O)NCc1ccco1	-9.0%	7.9%	6.9%	-0.4%	-0.7%	?	?
3	COCCNC(=O)c1cnn2c(C(F)(F)F)cc(-c3ccc(C)cc3)nc12	-0.2%	20.0%	-10.2%[46 µM]	i	-0.9%	-12.9%	?
4	C=CCOc1ccc(CN(C)CC(=O)Nc2ccc3c(c2)CCC3)cc1	-0.9%	-4.5%	-28.4%[46 µM]	-12.7%	0.5%	-3.5%	?
5	CCOC(=O)c1ccc(NC(=O)C2(c3ccc(OC)cc3)CCCC2)cc1	-1.5%	-6.6%	?	-10.6%	-2.5%	-77.1%[inhibitor]	-10.6%
6	Cc1cccc2cc3c(NC(=O)CC(C)C)nn(C)c3nc12	-9.1%	-0.1%	10.3%	-6.4%	-3.9%	1.7%	?
7	Fc1ccc2nc(Nc3nc4c(F)cccc4s3)sc2c1	5.3%	1.3%	?	-3.5%	-0.5%	?	?
8	Cc1cccc(NCc2ccc(O)c3ncccc23)c1	-4.9%	16.1%	?	-10.7%	-7.1%	·	2.82µM*

2 records picked at random from the list so far:
nr	SMILES	TRb-SRC2 inh	GoLoco inh red	Lamin A splicing	RECQ1 inh	TR SRC2 fluor cs	SMN2 splice up	ALDH1A1 block
8	Cc1cccc(NCc2ccc(O)c3ncccc23)c1	-4.9%	16.1%	?	-10.7%	-7.1%	·	2.82µM*
5	CCOC(=O)c1ccc(NC(=O)C2(c3ccc(OC)cc3)CCCC2)cc1	-1.5%	-6.6%	?	-10.6%	-2.5%	-77.1%[inhibitor]	-10.6%

Limited to ALDH1A1 block and RECQ1 inh, for some of the entries so far:
no.	Structure	ALDH1A1 block	RECQ1 inh
3	COCCNC(=O)c1cnn2c(C(F)(F)F)cc(-c3ccc(C)cc3)nc12	?	i
4	C=CCOc1ccc(CN(C)CC(=O)Nc2ccc3c(c2)CCC3)cc1	?	-12.7%
5	CCOC(=O)c1ccc(NC(=O)C2(c3ccc(OC)cc3)CCCC2)cc1	-10.6%	-10.6%
6	Cc1cccc2cc3c(NC(=O)CC(C)C)nn(C)c3nc12	?	-6.4%

Grouped by structure: the entries above containing four or more nitrogen atoms (four)
nr	SMILES	TRb-SRC2 inh	GoLoco inh red	Lamin A splicing	RECQ1 inh	TR SRC2 fluor cs	SMN2 splice up	ALDH1A1 block
1	c1ccc(N2CCN(Cc3cn4ccccc4n3)CC2)cc1	-2.7%	4.4%	-12.4%[46 µM]	-3.1%	0.1%	·	11.1%
2	O=C(CCCCn1c(=O)c2ccccc2n(CC(=O)NC2CCCC2)c1=O)NCc1ccco1	-9.0%	7.9%	6.9%	-0.4%	-0.7%	?	?
3	COCCNC(=O)c1cnn2c(C(F)(F)F)cc(-c3ccc(C)cc3)nc12	-0.2%	20.0%	-10.2%[46 µM]	i	-0.9%	-12.9%	?
6	Cc1cccc2cc3c(NC(=O)CC(C)C)nn(C)c3nc12	-9.1%	-0.1%	10.3%	-6.4%	-3.9%	1.7%	?

Screens: PubChem, National Center for Advancing Translational Sciences (NCATS)

Some of the compounds tested; the hit share may differ from the screen's.
